Screening data deposited in PubChem by Johns Hopkins Ion Channel Center.
KCNQ2 enhance: potentiators of rat KCNQ2 potassium channel. CHO-K1 KCNQ2, FluxOR thallium flux fluorescence; active compounds read high. B-score at 10 µM. Potassium voltage-gated channel subfamily KQT member 2 (Rattus norvegicus), O88943. AID 2239, 2010. 0.54% of 310,000 active;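 active means fluorescence ratio B-score at least 3 SD of library B-scores, with initial fluorescence B-score within 3 SD, cut at about 5.3 in these data; same plate scores as AID 2156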;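 further: B-score of peak minus minimum over baseline fluorescence ratio after K+ and Tl+ stimulus; positive B-score means potentiation of KCNQ2 with more thallium influx and brighter signal; only the inactives scoring about 0 or higher are listed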
Target sequence (O88943 whole entry, looked up): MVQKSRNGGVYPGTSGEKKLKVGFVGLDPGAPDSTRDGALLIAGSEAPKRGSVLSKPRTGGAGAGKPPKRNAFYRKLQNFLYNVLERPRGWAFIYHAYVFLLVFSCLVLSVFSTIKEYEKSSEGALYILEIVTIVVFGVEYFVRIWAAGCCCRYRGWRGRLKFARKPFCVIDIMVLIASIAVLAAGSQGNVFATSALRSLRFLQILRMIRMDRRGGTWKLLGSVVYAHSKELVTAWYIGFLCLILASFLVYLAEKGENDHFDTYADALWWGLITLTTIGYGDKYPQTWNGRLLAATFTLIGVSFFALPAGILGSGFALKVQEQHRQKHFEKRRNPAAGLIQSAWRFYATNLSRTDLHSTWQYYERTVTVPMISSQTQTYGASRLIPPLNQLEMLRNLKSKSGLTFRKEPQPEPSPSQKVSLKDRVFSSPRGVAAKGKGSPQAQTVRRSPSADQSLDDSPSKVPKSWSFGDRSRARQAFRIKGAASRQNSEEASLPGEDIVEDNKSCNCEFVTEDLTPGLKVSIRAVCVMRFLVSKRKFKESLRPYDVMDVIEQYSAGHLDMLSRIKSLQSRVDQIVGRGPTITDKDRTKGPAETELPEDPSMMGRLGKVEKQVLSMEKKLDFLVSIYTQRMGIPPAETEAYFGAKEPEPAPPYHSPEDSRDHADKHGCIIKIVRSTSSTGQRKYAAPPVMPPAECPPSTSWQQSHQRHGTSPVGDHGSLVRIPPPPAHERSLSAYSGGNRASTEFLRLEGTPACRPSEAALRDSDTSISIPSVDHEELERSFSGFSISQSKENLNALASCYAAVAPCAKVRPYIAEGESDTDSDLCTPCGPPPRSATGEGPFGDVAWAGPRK
KCNQ2 enhance baseline: second read-out of KCNQ2 enhance, no call of its own (marks repeat the call); B-score; compound at 10 µM; measured here: initial fluorescence intensity artifact check;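 brightness before thallium and not channel activity; 0 = typical well and far values either way flag optical interference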
An asterisk follows results filed as active. The list is partial. The share of hits here may be higher or lower than overall.

The line under a structure holds: KCNQ2 enhance	KCNQ2 enhance baseline
O=C(O)c1ccc(NCc2cccc(Br)c2)cc1
  0.16	-0.07
Cc1cc(Br)c(NC(=O)COn2nnc3ccc(S(C)(=O)=O)cc32)c(Br)c1
  1	0.02
Cc1cc(Br)c(NC(=O)CCl)c(Br)c1
  6*	-1.5*
CC(=O)c1cc(C#N)c(SCc2ccccc2C#N)nc1C
  0.19	-0.01
Cc1ccc(S(=O)(=O)C2CS(=O)(=O)CC2O)cc1 (centres undefined)
  0.88	0.67
Cc1ccc2nc(NC(=O)C3CCN(S(=O)(=O)c4cccs4)CC3)sc2c1
  0.62	-1.4
CCC(CC)c1nc(C(N)=O)c2[nH]c(=O)n(-c3ccc(OC)c(OC)c3)c2n1
  0.9	0
CCOC(=O)N1CCc2c(sc(NC(=O)CN(CC)CC)c2C#N)C1
  0.23	-1.4
CCCC(CCC)c1nc2ccncc2[nH]1
  0.11	1.8
CCC(C)[C@H](NC(=O)NC(C)C)C(=O)O (some centres undefined)
  1.3	-0.59

Quoted at random: 5 records from the list.
The line under a structure holds: KCNQ2 enhance	KCNQ2 enhance baseline
Cc1cc(Br)c(NC(=O)COn2nnc3ccc(S(C)(=O)=O)cc32)c(Br)c1
  1	0.02
CCC(C)[C@H](NC(=O)NC(C)C)C(=O)O (some centres undefined)
  1.3	-0.59
Cc1cc(Br)c(NC(=O)CCl)c(Br)c1
  6*	-1.5*
O=C(O)c1ccc(NCc2cccc(Br)c2)cc1
  0.16	-0.07
CCOC(=O)N1CCc2c(sc(NC(=O)CN(CC)CC)c2C#N)C1
  0.23	-1.4

Sorted by SMILES length (falling): part of the list above
The line under a structure holds: KCNQ2 enhance	KCNQ2 enhance baseline
Cc1cc(Br)c(NC(=O)COn2nnc3ccc(S(C)(=O)=O)cc32)c(Br)c1
  1	0.02
Cc1ccc2nc(NC(=O)C3CCN(S(=O)(=O)c4cccs4)CC3)sc2c1
  0.62	-1.4
CCOC(=O)N1CCc2c(sc(NC(=O)CN(CC)CC)c2C#N)C1
  0.23	-1.4

Other records follow:
The line under a structure holds: KCNQ2 enhance	KCNQ2 enhance baseline
COc1cc(/C=N/n2cnnc2)ccc1OCCOc1ccccc1
  1.1	-0.76
OCCCCCN=c1cc(-c2ccccc2)oc2ccc(Cl)cc12
  2.7	-0.68
CCn1c2ccccc2c2nnc(SCC(=O)N(C)C3CCS(=O)(=O)C3)nc21 (centres undefined)
  0.26	1.2
COC(=O)c1c(NC(=O)c2ccccc2[N+](=O)[O-])sc2c1CC(C)(C)NC2(C)C
  0.82	-0.69
CC(C)Cc1nnc(NC(=O)Cc2ccc([N+](=O)[O-])cc2)s1
  1.5	-1.9
CCn1c(=O)c(C(=O)NNC(=O)c2ccccc2Cl)c(O)c2ccccc21
  1.3	1.4
NC(=O)c1cc(C(=O)c2ccc(Cl)cc2Cl)c[nH]1
  0.86	1.4
COCc1nnc(NC(=O)CC(c2ccccc2)c2ccccc2)s1
  0.13	1.8
OCCNCC(O)CN1c2ccccc2Sc2ccccc21 (centres undefined)
  1.1	-0.72
CCCOc1nnnn1-c1ccccc1
  0.67	-2.5
O=C(O)c1ccc2c(c1)S(=O)(=O)N=C1CCCCCN12
  0.13	-0.02
CCN1CCc2c(OCC(=O)Nc3ccc(C)cc3)cccc2C1=O
  0.5	-1.3
CC(C)(C)n1cn[nH]c1=S
  0.82	-1.1
O=C(Nc1ccc(OC(F)(F)F)cc1)c1ccc2ccccc2n1
  1.9	-0.86
Cc1n[nH]c(=O)nc1NCc1ccc(Cl)cc1
  0.31	0.98
Cc1c(C(=O)NCc2ccc3c(c2)OCO3)sc2nc(-c3ccc(F)cc3)cn12
  0.02	-0.56
O=c1c(Cc2ccc(F)cc2)c(O)ccn1C1CC1
  0.2	1.5
Cc1ccc(SCC(=O)NCCN2C(=O)CSC2=O)cc1C
  0.94	-1.1
CC(=O)Nc1cc2c(cc1NC(=O)Cn1nc(-c3ccc4c(c3)OCCO4)ccc1=O)OCCO2
  0.29	-0.07
CN(C)CCN(C(=O)c1ccc(S(=O)(=O)N2CCCC2)cc1)c1nc2ccc(Br)cc2s1
  0.69	0.17
COc1ccc(OC)c(/C=C2\SC(=S)N(C(C(=O)O)c3ccccc3)C2=O)c1 (centres undefined)
  0.75	0.5
CCCC(=O)NC1=C(C#N)C2(CCCC2)Cc2ccccc21
  0.03	0.01
O=C(Nc1cccc(F)c1)C1CCN(C(=O)c2ccc(Cl)cc2)CC1
  1.1	-1.5
CCOC(=O)c1sc(N=NC2=C(O)CCCC2=O)c(C(=O)OCC)c1C
  0.24	-0.46
O=C(CSc1nnnn1Cc1ccccc1)Nc1ccc2c(c1)OCO2
  0.33	-0.55
Nc1c(-c2cccs2)cnn1-c1nc(-c2ccc(Cl)cc2Cl)cs1
  0.75	1.4
CCOC(=O)c1c(C)nc2ccc(C)cn12
  0.57	-0.26
CCOn1c(=O)c(-c2ccc(C)cc2)[n+]([O-])c2ccccc21
  0.02	0.31
CCn1ncc(/C=N\NC(=O)c2ccc3c(c2)c(C)c(C)n3Cc2ccccc2)c1C
  0.04	-0.18
COC(=O)CSc1cc(C)nc(NC(C)=O)n1
  0.12	0.29
CC1CN(CCCSc2ccc(Cl)cc2)CC(C)O1 (centres undefined)
  1.1	0.42
CN(C)c1ccccc1C(=O)N1CCC(n2nccc2NC(=O)C2CC2)CC1
  0.77	0.79
COc1ccc(C(=O)c2nccc3ccccc23)cc1
  2	-0.43
Cc1cc(NC(=O)CSc2nc(C(C)C)nc3sc4c(c23)CCC(C)C4)no1 (centres undefined)
  0.08	1.3
CC(C)C(C(=O)Nc1ccccc1F)N1C(=O)c2ccccc2C1=O (centres undefined)
  1.2	0.37
CCN(CC)S(=O)(=O)c1ccc(-c2nnc(SCc3nnc(-c4ccc(C)cc4)o3)o2)cc1
  0.26	-1.2
CCOC(=O)C1=C(C)NC(=O)NC1c1cccc(OC)c1OCc1ccccc1Cl (centres undefined)
  0.2	2.1
Cc1nnc(N2CCN(c3ccccc3)CC2)[nH]c1=O
  2.3	-0.36
CCN(C(=S)Nc1cccc(C)c1)c1ccccc1
  0.86	-0.81
O=C(NCc1cccs1)C1CC(c2ccc(Cl)cc2)=NO1 (centres undefined)
  0.36	-0.19
Cc1ccc(C)c(OCCCCn2ccnc2)c1
  0.13	1.3
COC(=O)CNc1cc(S(=O)(=O)N2CCCCC2)ccc1Oc1ccc(C(=O)OC)cc1
  0.02	0.06
C=CCn1c(SC(C)CC)nc(O)cc1=O (centres undefined)
  0.27	0.55
COc1ccc(C)cc1-n1nnnc1SCc1csc(C)n1
  0.03	0.28
CN(Cc1cnn(C)c1)C(=O)c1sc2cccc(Cl)c2c1Cl
  0.5	-1.4
Cc1nnc(NC(=O)CC23CC4CC(CC(C4)C2)C3)s1
  0.86	0.23
CCOc1ccc2ccc(OCC)c(/C=N/n3cnnc3)c2c1
  0.03	0.01
O=C(C1CC1)N1CCc2cc(Br)cc(S(=O)(=O)NCc3ccccn3)c21
  1.8	-2.8
CCOc1ccc(NS(=O)(=O)c2cc(NC(=O)CCS(=O)(=O)c3ccc(C)cc3)ccc2OC)cc1
  0.13	0.35
O=C(CS(=O)(=O)c1c[nH]c2ccccc12)N1CCCc2ccccc21
  0.28	-0.33

The listing continues:
The line under a structure holds: KCNQ2 enhance	KCNQ2 enhance baseline
CCOc1ccccc1NC(=O)CSc1ccc(-c2sc(C)nc2C)nn1
  0.09	-1.4
CCOC(=O)N1CCC(NS(=O)(=O)c2ccc(C)c(Cl)c2)CC1
  1.2	0.15
Cc1cc([N+](=O)[O-])nn1Cc1ccc(C(=O)N/N=C/c2ccc(F)cc2)cc1
  0.95	0.29
CC(C)N(C(=O)COC(=O)c1ccc([N+](=O)[O-])cc1)c1ccccc1
  0.44	-0.02
CN(CC(=O)Nc1ccccc1Cl)C(=O)CSc1nncs1
  1.1	1.1
c1ccc(CCNc2ccnc3cc4ccccc4cc23)cc1
  0.82	0.26
O=C(CN1C(=O)c2ccc([N+](=O)[O-])cc2C1=O)Nc1cc(S(=O)(=O)N2CCOCC2)ccc1Cl
  0.03	0.74
OCCN1CCN(CC(O)COc2ccc(-c3ccccc3)cc2)CC1 (centres undefined)
  0.75	1.7
CCCCn1nc(NC(=O)CC)c2cc3cc(OC)ccc3nc21
  1	-0.19
Cc1c(C(=O)NNS(=O)(=O)c2ccccc2)sc(=S)n1C
  0.05	0.61
COc1ccccc1-n1nnnc1SCC(=O)N1CCCC1=O
  2.4	0.29
O=C(O)CSc1ncnc2sc3c(c12)CCC3
  0.93	-0.59
CCCCNCCCOc1cc(Cl)ccc1Cl
  0.36	-1.7
O=Cc1c(-c2ccc(F)cc2)nc2ccccn12
  0.84	-1.3
O=C(Nc1ccc(C2CCCCC2)cc1)C1CCN(c2ncccn2)CC1
  1.5	0.37
COCCN1C(=O)c2cc(C(=O)Nc3cccc(F)c3)ccc2C1Nc1cccc(F)c1 (centres undefined)
  0.28	0.03
CSc1sc(-c2ccnc(=S)[nH]2)c(-c2ccccc2)c1C#N
  0.05	0.35
Cc1cccc(Nc2nc(N)nc(CCl)n2)c1C
  0.36	-0.84
O=C(CN1CCN(Cc2ccc3c(c2)OCO3)CC1)Nc1cc(S(=O)(=O)N2CCCC2)ccc1Cl
  0.13	0.37
Cc1cc(-c2nc3c4c5c(sc4[nH]c(=O)n3n2)CCC5)c(C)o1
  3.6	-1.4
O=c1[nH]c2ccccc2nc1NCCN1CCOCC1
  1.4	0
CCOC(=O)C1=C(C)Nc2ncnn2C1c1cccnc1 (centres undefined)
  0.42	1.9
COCC(=O)Nc1ccc2c(c1)OCC(=O)N2Cc1ccccc1F
  0.73	0.06
O=C(COC(=O)Cc1n[nH]c(=O)c2ccccc12)Nc1c(Cl)cccc1C(F)(F)F
  0.78	-1.6
CSc1ccc(CNc2ccccn2)cc1
  0.08	-1.1
COc1ccc(C(=O)CCc2ccc(OC)c(OC)c2)cc1
  1	0.65
CSc1nnc(C)c(=O)n1COC(=O)/C=C/c1ccc2c(c1)OCO2
  1.7	-0.56
COC(=O)c1sccc1NC(=O)CSc1ccccc1NS(=O)(=O)c1ccc(F)cc1
  0.54	-0.11
Cc1ccc2nc(NC(=O)C3CCN(C(=O)c4ccc(F)cc4)CC3)sc2c1
  0.4	0.29
Cc1cccc(C(=O)CC(=O)c2cc(Cl)ccc2O)c1
  0.16	0.14
Cc1c(Cl)cccc1NC(=O)[C@@]1(CC(=O)O)CC(/C=C/c2ccccc2)=NO1
  0.48	0.02
COc1ccc(CCNC(=O)C(=O)NCC2OCCN2C(=O)c2ccc(Cl)cc2)cc1 (centres undefined)
  1.6	-1.6
CCC(=NCc1ccccc1)C1=C(O)C(C(=O)OC)C(C)(C)CC1=O (centres undefined)
  1	-1.5
N/C(=N\OC(=O)c1cccc(Cn2cc(C(F)(F)F)ccc2=O)c1)c1ccccc1
  0.52	1.9
Cc1c(Cl)cccc1NC(=O)CNC(=O)c1ccccc1F
  1.3	0.35
Cc1cccc(NC(=S)NC(=O)c2ccc(-c3ccccc3)cc2)n1
  0.71	-1.1
COc1ccc(NC(=O)CSc2nccn2C)cc1S(N)(=O)=O
  0.01	2.2
COc1ccc(-c2cc(C(F)(F)F)nc(N)n2)cc1
  0.53	-1.9
Cc1nnc(NC(=O)C(c2ccccc2)c2ccccc2)s1
  0.31	2.3
COc1ccc(/C=C2\Oc3cc(OCC(=O)N4CCC(C(=O)O)CC4)ccc3C2=O)c(OC)c1OC
  1.2	0.24
COc1cc(C(C)=O)ccc1OCC(=O)NCC1(N2CCCCC2)CCCCC1
  0.38	-1.9
CC1CCCN(C(=O)C2CCC(CNc3c(N4CCCCC4)c(=O)c3=O)CC2)C1 (centres undefined)
  0.07	-1.7
CCOC(=O)CSc1nc(N2CCOCC2)c2c(c1C#N)CC(C(C)C)OC2 (centres undefined)
  0.18	0.17
Cc1cc(=O)nc2c3ccccc3n(C(C)C(=O)Nc3c(F)c(F)c(F)c(F)c3F)n12 (centres undefined)
  1.8	-1.4
C/C(=N\NC(=O)c1cc(Cl)ccc1O)c1ccc(Br)s1
  2.3	0.14
CCOc1ccc(Br)cc1CN(CC)CC
  0.21	0.22
Cc1ccc(CS(=O)(=O)Cc2ccc(C(=O)NC3CC3)o2)cc1
  2.3	-1.3
COCc1nnc(NC(=O)c2ccc(NC(=O)C(C)C)cc2)s1
  1.3	-3
Cc1cccc(NC(=O)COC(=O)Cc2cccs2)c1C
  0.68	-0.55
CC(=O)c1c(C)n(CC(=O)NCc2ccco2)c2ccccc12
  0.24	2.1

Other compounds.
The line under a structure holds: KCNQ2 enhance	KCNQ2 enhance baseline
O=C(CSc1cccc2cccnc12)N/N=C/c1ccc(O)cc1
  1.4	1.6
O=C(CCC(=O)N(CC(=O)NC1CCCC1)Cc1ccc(F)cc1)Nc1nccs1
  0.68	0
COc1cc(O)c(CCC(=O)c2ccc(OC)c(OC)c2)c(OC)c1
  2.1	-0.02
CCC(C)NC(=O)CSc1nc2n[nH]c(C)c2c(=N)n1-c1ccc(OC)cc1 (centres undefined)
  0.47	-0.11
CCN(CC)CCCN1C(=O)CSC1c1ccc2c(c1)OCO2 (centres undefined)
  0.75	1.8
Cc1cc(=O)oc2c3c(cc(OCC(=O)NCc4ccccc4)c12)OC(C)(C)CC3
  4.1	-1.8
CSc1ncccc1C(=O)NCCc1ccc(Cl)cc1
  0.46	-0.08
CCCCNC(=O)C12CCC(C)(C(=O)C1Br)C2(C)C (centres undefined)
  1.6	0.11
CC(=O)c1ccc(NC(=O)C2CCN(S(=O)(=O)c3cccc4cccnc34)CC2)cc1
  0.48	1.6
C/C(CC(=O)Nc1ccc2c(c1)OCCO2)=N\NC(=O)COc1ccccc1C
  0.96	-0.74
